Screening data deposited in PubChem BioAssay by several laboratories.
Env fusion inh = blocks HIV Env-driven cell-cell fusion. inhibition, % at 12.3 µM. 360,000 tested, 1.1% active. HeLa-JRFL Env/CEM21 cell fusion, luciferase;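 active means mean replicate inhibition score of at least 50 and every replicate individually at or above 50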;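 further: 0% = plate neutral controls and 100% = maraviroc near 300 nM; one replicate is shown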
Rce1 inhib = inhibitors of yeast Ras-converting enzyme | Q03530 | yeast membranes, quenched prenylated peptide cleavage fluorescence | calls only | 290,000 tested, 0.27% active | AID 2563;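 active means fall in fluorescence gain of 50% or more versus controls, with final raw signal at or below 3038400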;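 further: plate controls were neutral control wells for no effect and wells lacking membranes for full effect; tested at 10 µM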
CSC inhib = cancer stem cell inhibition; cancer stem cell-like cells viability, luminescence; inhibition, % at 7.5 µM; 300,000 tested, 1.1% active; AID 2717;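 active means mean at 75% or more and at least half the replicates too; tested in HMLE shEcad cells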;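 further: 0% = median of negative and 100% = median of positive control wells; the first replicate is given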
MT1-MMP act inh = blocks activation of human MT1-MMP. P50281. GFP/RFP ratio change, % at 20 µM. HT1080 RFP-PRO-GFP cells, GFP/RFP ratio fluorescence, overnight; percent of plate control window, DMSO zero. 360,000 tested, 0.061% active;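 active means GFP/RFP ratio change of at least 30% with cell ATP level not reduced by more than half and red fluorescence within 50% of control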; further: strong numbers were not always called active
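Assay system: HT1080 RFP-PRO-GFP cells | Dosing: 20 µM single dose, 1% DMSO | Incubation: Cells overnight before dosing, compound overnight, 37 °C, 5% CO2 | Evaluation: GFP/RFP fluorescence ratio | Control set: DMSO-only wells and HT1080 RFP-L50D-GFP cell wells as references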
MT1-MMP act inh RFP = also measured in MT1-MMP act inh; calls as there; RFP signal change, %; measured here: RFP expression control read;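 0 = vehicle wells; hits needed this value within 50% of zero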
* hit, by the source's call; i = inactive; x = not tested or not shown.

SMILES	Env fusion inh	Rce1 inhib	CSC inhib	MT1-MMP act inh	MT1-MMP act inh RFP
CC(Oc1c(Cl)cccc1Cl)C1=NCCN1 (centres undefined)	x	i	-10.2	x	x
COc1cncc(C#Cc2ccccn2)c1	-17.7	x	x	0.3	1.6

An excerpt. The share of hits here may be higher or lower than overall.
